Assay outcomes deposited in PubChem by Fisher Drug Discovery Resource Center.
NPYLR7 agonist – mosquito NPYLR7 agonism. HEK293T NPYLR7/Galpha15, GCaMP6s calcium fluorescence. activation, % at 10 µM. hit rate 0.15% among 270,000. AID 1259423; in the data active means activation above about 40%;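 further: 0% = vehicle and 100% = reference agonist at the receptor; some compounds past the cut are filed as inactive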
NPYLR7 agonist max-min – recorded beside NPYLR7 agonist, whose call it bears; activation, %; measured here: Max-Min RFU normalised activation; some inactives read as strong as hits;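 span of the calcium signal over five minutes; 0% = vehicle and 100% = native peptide agonist; compound fluorescence can raise it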
* hit, by the source's call; & = joins results of further samples.

(1) CC(C)N(CCC(=O)NC(Cc1ccccc1)c1ccccc1)c1nc(Cc2ccccc2)ns1 (configuration not stated)
(2) O=C(O)c1ccc(NS(=O)(=O)c2ccc(Cl)nc2Cl)cc1
(3) C=CCNc1nc2c(c(=O)[nH]c(=O)n2C)n1Cc1ccccc1C
(4) O=C(CCc1csc(NC(=O)c2ccc[nH]c2=O)n1)Nc1nccs1
(5) COc1cc2c(cc1OC)C(c1c(F)cccc1Cl)N(C(=O)Nc1cccc(C#N)c1)CC2 (configuration not stated)
(6) Cc1cccc(OCc2nc(CN(CCN3CCOCC3)C(=O)c3ccc(F)cc3)cs2)c1C
entry no.	1	2	3	4	5	6
NPYLR7 agonist	15.2	12.3	-9.2	-11.1	24.5	-7.0
NPYLR7 agonist max-min	15.7	9.7	-9.4	-16.1	10.4	1.5

(7) Cc1cccc(CO[C@]2(C(=O)NCCN3CCCC3)CC(OCc3c(F)cccc3F)[C@@H]3OC(C)(C)O[C@@H]3C2)c1 (some centres not stated)
(8) Cc1c(C(=O)N2CCN(C(=O)C(C)(C)C)CC2)cc(-c2ccc(F)cc2)n1-c1ccccc1
(9) OCc1ccccc1-c1ccc(-c2nc(CCc3ccccc3)no2)cn1
(10) Cc1ccc(C(=O)NNC(=O)c2csc(N3CCOCC3)n2)c(C)c1
(11) Cc1ccc(S(=O)(=O)N2CCOC(C)C2)c2cccnc12 (configuration not stated)
(12) CC1CCN(Cc2nnnn2CCCC(=O)NC(C)c2cnn(C)c2)CC1 (configuration not stated)
entry no.	7	8	9	10	11	12
NPYLR7 agonist	25.1	-3.0	-9.5	26.0	6.4	0.5
NPYLR7 agonist max-min	14.6	1.5	-9.8	13.0	4.6	-4.2

(13) Cc1nc(NC(=O)c2ccc([N+](=O)[O-])cc2)sc1C
(14) CCCn1nnc(NCc2ccc(C)cc2)n1
(15) COc1ccc(NC(=O)N(Cc2ccc(OC)c(OS(=O)(=O)c3cccc(C(F)(F)F)c3)c2)CC(C)C)c(OC)c1
(16) Cc1cccc(Cc2nc3c(c(N4CCOCC4)n2)CN(C(=O)NC24CC5CC(CC(C5)C2)C4)CC3)c1
(17) CCc1nsc(SCc2cnn(C)c2)n1
(18) CCn1cc(CN(C(=O)C2CNCCO2)C(C)C)cn1 (configuration not stated)
entry no.	13	14	15	16	17	18
NPYLR7 agonist	5.7	0.8	2.6	-0.2	1.7	-11.3
NPYLR7 agonist max-min	3.1	0.6	3.1	10.3	-6.6	-15.4

(19) O=c1nc2c3ccc(F)cc3ncn2nc1-c1ccc(F)cc1
(20) O=C1C(=O)N(C2CCCC2)C(=O)N1CN1CCCC1c1nc2ccccc2s1 (configuration not stated)
(21) CC1(C(=O)NS(=O)(=O)Cc2cccc(Cl)c2)CCN1C(=O)c1ccco1 (configuration not stated)
(22) Cc1ccc(NC(=O)NCCNc2cc(N3CCOCC3)nc(C)n2)c(Cl)c1
(23) O=S(=O)(NC1CC1c1ccc(F)cc1)c1cnn(-c2ccccc2)c1 (configuration not stated)
(24) CC1CCCC(NC(=O)C2(C)CCCO2)C1 (configuration not stated)
entry no.	19	20	21	22	23	24
NPYLR7 agonist	-0.5	4.6	0.0	-0.8	8.0	2.4
NPYLR7 agonist max-min	-5.5	2.5	-1.2	-2.5	6.2	-0.4

(25) O=C(CCCCC1CCSS1)NCCCOc1cccc([N+](=O)[O-])c1 (configuration not stated)
(26) O=S(=O)(NC1Cc2ccccc2C1N1CCCCCCC1)c1ccccc1 (configuration not stated)
(27) Cc1ccc(F)cc1NS(=O)(=O)c1c(C)nn(C)c1C
(28) CS(=O)(=O)CCSc1cc2c(cc1Cl)OCCO2
(29) Cc1ccc(NC2CCCN(C(=O)c3cc(Cl)c[nH]c3=O)C2)cc1C (configuration not stated)
(30) CCOC(=O)CCC(=O)N1CCN(c2cc(Oc3ccc(F)cc3F)ncn2)CC1
entry no.	25	26	27	28	29	30
NPYLR7 agonist	-13.5	-1.4	-6.7	11.7	-5.0	1.9
NPYLR7 agonist max-min	-22.8	-1.9	-6.2	7.7	-9.0	0.9

(31) Cc1cc2c(n1-c1ccc(S(=O)(=O)N(C)C)cc1)CC(C)(C)CC2=O
(32) COc1ccc(CCN(C)C(=O)c2cc(-c3ccccc3OC)nc3cc(-c4ccc(Cl)cc4)nn23)cc1OC
(33) Cn1c(SCC(=O)N2CCOCC2)nnc1-c1ccc(=O)n(C)c1
(34) COc1cc(Br)c(S(=O)(=O)Nc2cc(Cl)ccc2F)cc1OC
(35) CCOC(=O)c1ccc2c(c1)sc(=NC(=O)c1ccn(CC)n1)n2CCSC
(36) Fc1ccc(Cn2c(C3C4CCCCC43)n[nH]c2=S)cc1 (configuration not stated)
entry no.	31	32	33	34	35	36
NPYLR7 agonist	3.4	19.2	4.1	4.4	-3.2	-5.2
NPYLR7 agonist max-min	2.8	23.1	2.5	3.6	-3.4	-11.4

(37) CCC(C)N(Cc1cccc(C(F)(F)F)c1)Cc1nc(C(=O)O)co1 (configuration not stated)
(38) CCn1c(=O)c(C(=O)NCCCOC)nn(-c2ccc(Cl)cc2)c1=O
(39) CCn1c(C(=O)N2CCN(C(=O)Cc3cccs3)C(C)C2)cc2ccsc21 (configuration not stated)
(40) CCOCCn1c(CN2CCC(C)CC2)nc2c1c(=O)n(C)c(=O)n2C
(41) Cc1cccnc1[C@H](C)NC(=O)C1(S(=O)(=O)c2ccccc2)CC1
(42) O=C1c2ccccc2C(=O)C1(c1ccccc1)C(C[N+](=O)[O-])c1ccc2c(c1)OCO2 (configuration not stated)
entry no.	37	38	39	40	41	42
NPYLR7 agonist	-4.7	11.4	8.9	1.4	-0.2	6.0
NPYLR7 agonist max-min	-0.3	11.4	19.8	-1.2	-3.3	0.6

(43) COc1ccc(-c2nc3ccccn3c2NC(=O)C2CCC2)cc1
(44) Cc1cccc(CO[C@]2(C(=O)NCCN3CCOCC3)CC(OCc3ccc(F)cc3)[C@H](O)[C@H](O)C2)c1 (some centres not stated)
(45) Cc1ccnc(SCc2cc(=O)c(OC(=O)c3ccc(F)c(F)c3)co2)n1
(46) O=C(Nc1nnc(-c2cccc(Cl)c2)s1)C1CCCN1C(=O)Nc1ccc(C(F)(F)F)cc1 (configuration not stated)
(47) CN(c1cc(-c2ccccc2)nc(SCc2cccc(C(=O)O)c2)n1)C1CCCCC1
(48) COc1cc(C2=N/C(=C\C(C)=C\c3ccccc3)C(=O)O2)cc(OC)c1OC
entry no.	43	44	45	46	47	48
NPYLR7 agonist	-3.9	3.5	-16.5	13.9	7.1	0.2
NPYLR7 agonist max-min	3.0	4.5	-13.1	2.9	12.5	-5.2

(49) O=C(NCc1ccccc1F)NCC1COc2ccccc2O1 (configuration not stated)
(50) C=C1C=CC(=O)C(NNc2ccccc2)=N1
(51) CCN(CC(=O)Nc1cccc2nsnc12)c1ccccc1C
(52) CC1CCc2ccccc2N1CCC(=O)Nc1cccc(Cl)c1-n1cncn1 (configuration not stated)
(53) Cc1ccc(-n2nnc3c(=O)n(C/C=C/c4ccccc4)cnc32)cc1
(54) CC1CCC2(CC1)OCC(C(=O)NCc1ccco1)N2C(=O)c1ccccc1F (configuration not stated)
entry no.	49	50	51	52	53	54
NPYLR7 agonist	-5.8	0.8	8.2	11.0	-0.3	-6.6
NPYLR7 agonist max-min	-9.7	8.5	2.9	9.1	3.6	-4.0

Fetched by compound from above:
(52) CC1CCc2ccccc2N1CCC(=O)Nc1cccc(Cl)c1-n1cncn1 (configuration not stated)
(54) CC1CCC2(CC1)OCC(C(=O)NCc1ccco1)N2C(=O)c1ccccc1F (configuration not stated)
entry no.	52	54
NPYLR7 agonist	11.0	-6.6
NPYLR7 agonist max-min	9.1	-4.0

More compounds follow.
(55) COc1ccccc1-n1c(SCc2ccc(C(=O)N3CCN(c4ccccc4F)CC3)cc2)nnc1-c1ccco1
(56) O=C(CSc1nc2c(c(=O)n1CCc1ccccc1)SCC2)N1CCCc2ccccc21
(57) Cc1c(C(=O)NCc2cnn(Cc3ccccc3)c2)cnc2ccnn12
(58) O=C(c1ccco1)N1CCN(C(=O)c2cc(F)ccc2C(F)(F)F)CC1
(59) CCOc1ccc(-c2nc(Cn3nnc(C(=O)Nc4ccccc4OC)c3C)c(C)o2)cc1
(60) O=C(NCCc1cnn(-c2ccccc2)c1)C1CCC(=O)N(Cc2ccccn2)C1 (configuration not stated)
entry no.	55	56	57	58	59	60
NPYLR7 agonist	-3.6	-13.0	8.9	-7.4	-0.4	3.5
NPYLR7 agonist max-min	-1.2	-16.4	5.2	-10.6	-1.1	1.1

(61) CC(C)C1=NOC(C(=O)NCc2n[nH]c3c2CCCCC3)C1 (configuration not stated)
(62) COc1cc(OC)cc(-c2nnc(SCc3ccc(Cl)cc3Cl)n2-c2ccccc2C)c1
(63) O=C(Nc1cccc(-c2cc3ccccc3[nH]2)c1)C1CCCN(Cc2nccs2)C1 (configuration not stated)
(64) CC(C)n1c(N)nc2cc(Br)ccc21
(65) CCOC(=O)C1(Cc2ccc(Cl)cc2)CCN(C2CCSC2)CC1 (configuration not stated)
(66) CC1(C)CCCC1NC(=O)c1cc(F)cc(F)c1 (configuration not stated)
entry no.	61	62	63	64	65	66
NPYLR7 agonist	-5.7	25.6	12.7	0.4	3.6&12.3	8.6
NPYLR7 agonist max-min	-9.7	28.4	7.1	-0.9	-0.3&11.6	7.0

(67) COc1ccccc1CN1CCCn2cccc2C1c1cccc(F)c1 (configuration not stated)
(68) COc1ccc(C2CCCCN2Cc2ncccc2C(=O)O)cc1 (configuration not stated)
(69) CSc1nc(N)c(NC(=O)c2ccco2)c(=O)[nH]1
(70) c1ccc(-c2cnn3cc(CN4CCCC4Cn4cccn4)cnc23)cc1 (configuration not stated)
(71) CCCn1cc(C(=O)N2C[C@H](N)C[C@H]2C(=O)NC)c(C)n1
(72) S=C(c1ccc(-c2ccc(Cl)c(Cl)c2)o1)N1CCOCC1
entry no.	67	68	69	70	71	72
NPYLR7 agonist	13.2	4.5	2.7	11.8	16.6	-1.9
NPYLR7 agonist max-min	9.9	2.2	-0.3	11.4	9.9	-4.1

14 entries from above in a different format:
Order of results – NPYLR7 agonist, NPYLR7 agonist max-min
(59) CCOc1ccc(-c2nc(Cn3nnc(C(=O)Nc4ccccc4OC)c3C)c(C)o2)cc1
    -0.4, -1.1
(60) O=C(NCCc1cnn(-c2ccccc2)c1)C1CCC(=O)N(Cc2ccccn2)C1 (configuration not stated)
    3.5, 1.1
(61) CC(C)C1=NOC(C(=O)NCc2n[nH]c3c2CCCCC3)C1 (configuration not stated)
    -5.7, -9.7
(62) COc1cc(OC)cc(-c2nnc(SCc3ccc(Cl)cc3Cl)n2-c2ccccc2C)c1
    25.6, 28.4
(63) O=C(Nc1cccc(-c2cc3ccccc3[nH]2)c1)C1CCCN(Cc2nccs2)C1 (configuration not stated)
    12.7, 7.1
(64) CC(C)n1c(N)nc2cc(Br)ccc21
    0.4, -0.9
(65) CCOC(=O)C1(Cc2ccc(Cl)cc2)CCN(C2CCSC2)CC1 (configuration not stated)
    3.6&12.3, -0.3&11.6
(66) CC1(C)CCCC1NC(=O)c1cc(F)cc(F)c1 (configuration not stated)
    8.6, 7.0
(67) COc1ccccc1CN1CCCn2cccc2C1c1cccc(F)c1 (configuration not stated)
    13.2, 9.9
(68) COc1ccc(C2CCCCN2Cc2ncccc2C(=O)O)cc1 (configuration not stated)
    4.5, 2.2
(69) CSc1nc(N)c(NC(=O)c2ccco2)c(=O)[nH]1
    2.7, -0.3
(70) c1ccc(-c2cnn3cc(CN4CCCC4Cn4cccn4)cnc23)cc1 (configuration not stated)
    11.8, 11.4
(71) CCCn1cc(C(=O)N2C[C@H](N)C[C@H]2C(=O)NC)c(C)n1
    16.6, 9.9
(72) S=C(c1ccc(-c2ccc(Cl)c(Cl)c2)o1)N1CCOCC1
    -1.9, -4.1

The listing continues:
(73) O=C(c1n[nH]c2ccccc12)N1CC[C@@H](c2ccc(F)cc2)[C@H](O)C1
(74) Cc1cccc2sc(N(Cc3ccccc3)C(=O)CSc3nncs3)nc12
(75) CC(C)C(CO)N(Cc1ccccc1)C(=O)Nc1cnn(C)c1 (configuration not stated)
(76) CCCN(CCOC)[C@@H]1[C@@H](O)C[C@@H]2C[C@H](c3ccccn3)OC[C@@]21O
(77) Cc1csc(N(C(=O)CCl)c2ccccc2)n1
(78) O=C(Nc1sc2c(c1C(=O)Nc1ccccc1)CCCC2)c1ccc(F)cc1
entry no.	73	74	75	76	77	78
NPYLR7 agonist	-3.1	1.0	0.1	5.1	-0.4	3.2
NPYLR7 agonist max-min	-1.6	8.2	0.5	6.6	1.7	0.1

(79) NC(=O)C1CCN(C(=O)c2ccc3c(c2)[nH]c(=S)n2c4ccccc4nc32)CC1
(80) CSc1ncccc1C(=O)N1CCN([C@H]2C[C@H]3C[C@@H](c4ccccc4)OC[C@@]3(C)C2)CC1
(81) O=C(c1cccc(F)c1)N1CCCC(OCc2cccc(Cl)c2)C1 (configuration not stated)
(82) CCN(CC)C(=O)c1ccc(Cl)c(NC(=O)c2csnn2)c1
(83) CSC(C)C(=O)Nc1nc(-c2ccccc2)c(-c2ccccc2)o1 (configuration not stated)
(84) COc1ccc(-c2ncn(CC(=O)NN)c2[N+](=O)[O-])cc1
entry no.	79	80	81	82	83	84
NPYLR7 agonist	2.7	7.9	-3.3	7.7	-1.2	-3.0
NPYLR7 agonist max-min	2.6	23.7	3.0	-0.9	1.1	-8.3

The list is partial. The share of hits here may be higher or lower than overall.
